Menin-MLL FL inh: displaces fluorescein MLL peptide from human menin | Fluorescence polarization, fluorescein-MLL peptide displacement from menin | FP activity change, % at 61.4 µM | 290,000 tested, under 10 active; inconclusive = falling polarisation curve, or a change in total fluorescence; inactive = total fluorescence flat and polarisation flat or rising; no compound was filed as active; the % refers to the polarisation; negative = inhibition;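 also: % of control where 0% means no effect; inhibitors lower the polarisation; unlabelled MLL peptide was the positive control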
gsp agonist: gsp mutant agonism; gsp mutant cells, cAMP HTRF, 30 min; control for the full effect not named in the record; Potency, µM (highest dose often 76.9 µM), inactives show top-dose activation (cAMP increase), usual class: activators; hit rate 0.13% among 340,000; AID 624287; active = well fitted activation curve with a large enough effect; inconclusive = small, poorly fitted or top-dose-only effect, or another doubt; inactive = no such curve, though single readings can be large or run the other way; cell line not stated here;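 also: phosphodiesterase inhibitor Ro 20-1724 added with compounds to block cAMP breakdown; potency is read from the fitted curve at half-maximal effect; nearly all actives have a fitted effect of over 60% in size; about a fifth of the inactives were tested at one dose only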
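Cells stably selected in G418 were plated at 2000/well, grown 16-24 hr, then given compounds in DMSO with the PDE inhibitor […] (300 uM solution added) for 30 min at 37C; cAMP was read by HTRF.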
ClpP mod: qHTS Assay for Activators of ClpP; Potency, µM (highest dose often 57.5 µM), for the others: top-dose activity change, negative = active; ATP-dependent Clp protease proteolytic subunit (Bacillus subtilis (strain 168)), P80244; AID 651965, 2013; purified B. subtilis ClpP, FRET peptide cleavage, 20 min; hit rate 1.9% among 340,000; active = well fitted falling curve with a large enough effect; inconclusive = small, poorly fitted or top-dose-only effect; inactive = no such curve, though single readings can be large or run the other way; also: potency is read from the fitted curve at half-maximal effect; the source files actives as falling curves though it sought activators and does not explain the sign; nearly all actives have a fitted effect of over 65% in size; many hits overshoot -100%
Target sequence (P80244 whole entry, looked up): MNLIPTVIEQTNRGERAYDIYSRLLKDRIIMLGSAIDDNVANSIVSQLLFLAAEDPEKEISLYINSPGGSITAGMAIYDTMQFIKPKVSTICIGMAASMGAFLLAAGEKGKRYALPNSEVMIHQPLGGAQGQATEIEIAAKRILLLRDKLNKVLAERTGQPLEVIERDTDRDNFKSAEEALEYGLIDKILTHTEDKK
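ClpP 10 microg/mL final, pH 8 Tris/KCl buffer with BSA, glycerol, Tween-20; compound pinned in; FRET-FV substrate; RT 20 min; Ex320/Em430; ΔFRET vs ADEP 5.8 microM, DMSO, no enzyme.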
gsp antag: antagonizes gsp, the McCune-Albright syndrome mutation; gsp-mutant cells, cAMP HTRF, 30 min; control for the full effect not named in the record; Potency, µM (doses to about 76.9 µM), without a hit: at the top dose activity change, negative = inhibition, actives largely listed as inhibitors; hit rate 0.4% among 340,000; AID 624288; active = falling curve of any shape with a large fitted effect; inconclusive = falling curve, mostly with a smaller effect; inactive = flat or rising curve; cell line not stated here;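 also: intracellular cAMP measured with PDE inhibitor Ro 20-1724 present during compound exposure; potency is read from the fitted curve at half-maximal effect; % is scaled to controls: 0 for no effect and ±100 for the full control effect; nearly all actives have a fitted effect of over 65% in size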
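Cells, 2000/well, grown 16–24 h in DMEM 10% FBS with 0.5 mg/ml G418, then compounds plus […] (300 uM addition stock), 30 min at 37C. cAMP read by HTRF (cAMP-d2 and anti-cAMP antibody-K in lysis buffer) after 30 min RT.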
TRPV1 potentiator: potentiators of human vanilloid receptor 1 (TRPV1). potentiation, % at 8.33 µM. Q8NER1. TRPV1-expressing cells, Fluo-8 calcium influx, capsaicin EC20 potentiation; host cell line not named in the record; control for the full effect not named in the record. hit rate 0.02% among 320,000; active means potentiation above 80%; inconclusive means 30% to 80%; inactive means below 30%; also: 0% is about no effect
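Fluo-8 calcium influx in TRPV1-expressing cells, kinetic read (ex 480/em 520 nm). Compound added and read 3 min for agonist activity, followed by capsaicin at EC20 final and 2 min further read for enhancement.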
Sfp PPTase inh: blocks B. subtilis Sfp PPTase activity; Q9F4F7; Biochemical Sfp PPTase activity, qHTS; Potency, µM, for inactives: max response, negative = inhibition, usual class: inhibitors; hit rate 3.5% among 310,000; active = well fitted inhibition curve with a large enough effect; inconclusive = small, poorly fitted or top-dose-only effect, or another doubt; inactive = no such curve, though single readings can be large or run the other way;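 also: the enzyme is Sfp with the accession as filed and its product quenches rhodamine fluorescence; potency is read from the fitted curve at half-maximal effect; 0% = enzyme reaction without inhibitor and -100% = no enzyme wells; top concentration of the series not given in the record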
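Buffer: 50 mM Hepes-Na pH 7.6, 10 mM MgCl2, 0.01% Nonidet P-40, 0.01% BSA. Enzyme 15 nM, pre-exposed to compound 15 min; substrates then added and fluorescence change tracked over 30 min.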
TRPML1 blocker: blocks the human TRPML1 channel; hit rate 0.02% among 390,000; TRPML1-inducible cells, Ca2+ dye fluorescence, FDSS; active compounds read low; inhibition of EC80 agonist-evoked calcium signal; activity change, negative = inhibition, % (concentration not given with the values); Q9GZU1; in the data active means activity change below about -50%; inconclusive means about -30% to -50%; inactive means above about -30%;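 also: stimulus is agonist 54-4 at its EC80 concentration; % is scaled to controls: 0 for no effect and ±100 for the full control effect; the text of the record puts the active cut at -80%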
Target sequence (Q9GZU1 whole entry, looked up): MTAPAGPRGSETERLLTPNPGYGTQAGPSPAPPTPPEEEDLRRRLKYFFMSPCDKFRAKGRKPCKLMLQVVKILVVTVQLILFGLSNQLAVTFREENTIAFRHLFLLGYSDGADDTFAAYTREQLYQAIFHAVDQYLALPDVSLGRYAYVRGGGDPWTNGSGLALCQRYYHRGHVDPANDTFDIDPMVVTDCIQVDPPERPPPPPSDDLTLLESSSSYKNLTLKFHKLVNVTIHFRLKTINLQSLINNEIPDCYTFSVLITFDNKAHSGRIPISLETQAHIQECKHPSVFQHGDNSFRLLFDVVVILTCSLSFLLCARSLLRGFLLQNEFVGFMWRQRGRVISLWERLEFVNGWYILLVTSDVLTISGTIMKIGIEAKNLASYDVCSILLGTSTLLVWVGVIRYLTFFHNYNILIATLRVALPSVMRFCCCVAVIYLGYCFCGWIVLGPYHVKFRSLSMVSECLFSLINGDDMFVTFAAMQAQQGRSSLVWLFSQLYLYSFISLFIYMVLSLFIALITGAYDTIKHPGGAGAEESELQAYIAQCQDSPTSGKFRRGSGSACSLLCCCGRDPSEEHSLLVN
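TRPML1-DL cells, Tet-induced overnight (~16 h, 37 °C) at 1,500 cells/well, were loaded with Ca8 no-wash dye plus quencher for 45-90 min at room temperature. Compounds were pinned during FDSS kinetic reading; agonist 54-4 at EC80 (4 uM final) then added.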
* hit, by the source's call; ? = inconclusive; . = no result given; & = joins results of further samples; [ ] = remark or other dose.

smiles	Menin-MLL FL inh	gsp agonist	ClpP mod	gsp antag	TRPV1 potentiator	Sfp PPTase inh	TRPML1 blocker
O=C(Nc1cccc(C(F)(F)F)c1)c1cc(Br)cc2c1OCC2	4.4	16.5%[15.4 µM]	.	19.2%	-8.4	-2.1%	6.0
CCOc1ccc(N2C(=O)CN=C2Nc2ccccc2F)cc1	-0.4	0.0%	4.4%	11.3%	-6.2	9.1%	4.3
O=C(CCC(=O)OCc1ccc([N+](=O)[O-])cc1Cl)Nc1ccccc1	.	7.4%[15.4 µM]	-0.4%	15.9%	5.9	-7.5%	5.2
O=C(CS(=O)(=O)c1ccccc1)Nc1nc2ccccc2s1	1.8	29.8%	1.1%	-8.4%	-12.9	17.9%	5.4
O=C(CNC(=O)OCc1ccccc1)NC1(C(=O)O)CCCC1	.	4.3%	1.8%	7.9%	.	.	2.9
CC(C)(C)OC(=O)C[C@H]1C/C=C\C[C@H](CC(=O)N(CCO)Cc2ccccc2)C(=O)N[C@@H](Cc2ccccc2)COC1=O	.	-5.8%	0.7%	-18.4%	.	.	-5.1
Cc1ccc(Oc2nnc(-c3cccs3)c3ccccc23)cc1C	-7.5	-16.2%	-0.8%	-11.7%	9.7	-14.2%	2.6
CCN1/C(=C/C=C/C=C/C=C/c2sc3ccccc3[n+]2CC)Sc2ccccc21	?	18.8%	-0.5%	-11.1%	-0.8	50.1µM*	12.0
CCN1CCN(S(=O)(=O)c2ccc(-c3cc(C)no3)s2)CC1	.	-1.8%	2.1%	5.1%	2.0	22.2%	-2.8
N#Cc1c(N)n(-c2ccccc2)c(=O)c2cc([N+](=O)[O-])ccc12	7.5	-11.1%[15.4 µM]	.	.	-2.2	8.9%	-1.1
COc1cccc(/C=C/C(=O)OCC(=O)NCCCc2ccccc2)c1OC	.	-2.7%	13.9%	10.4%	.	.	-13.2
O=C(NNC1=NS(=O)(=O)c2ccccc21)C1CC(=O)N(c2ccccc2)C1 (stereo not given)	-1.8	-6.4%	1.3%	13.7%	14.1	-7.1%	8.7
Cc1cccc(NC(=O)CNC(=O)c2ccccc2Cl)n1	-7.3	-3.2%	-7.4%	-4.4%	-1.6	23.1%	-5.3
Cn1nnc(C(O)CNCc2cccs2)n1 (stereo not given)	0.9	?	2.1%	0.8%	3.6	-6.2%	1.8
CCc1c(C)sc(NC(=S)Nc2cccnc2)c1C(=O)OC	-0.3	6.2%[15.4 µM]	1.0%	-0.2%	-0.8	20µM*	-10.2
CCOc1cc(N2CCOCC2)c(OCC)cc1NC(=O)c1nc2nccc(C)n2n1	4.3	.	.	.	-0.6	10.9%	.
Cn1c(=O)[nH]c(=O)c2c1nc(Br)n2CC(O)COc1ccc(Cl)cc1 (stereo not given)	4.9	3.1%	-0.6%	-5.4%	-4.2	4.0%	-13.1
Cc1cc(NS(=O)(=O)N(C)C)ccc1C(C)C	0.5	26.0%	0.3%	-5.1%	-6.3	4.3%	0.3
O=C(NNC(=O)c1sc2cccc(Cl)c2c1Cl)Nc1ccccc1	5.8	5.3%	-0.5%	-4.6%[15.4 µM]	4.4	?	-5.6
Cc1ccc(C(=O)O/N=C2\CCCc3ccccc32)cc1	7.3	0.3%	0.8%	-0.3%	-4.5	-19.6%	12.7
NC(=O)[C@@H]1CCNc2c(I)cc([N+](=O)[O-])cc2C(=O)N[C@@H](CCC(=O)O)C(=O)N[C@@H](CO)C(=O)N1	3.5	-56.8%[inhibitor]	-5.6%	1.2%	6.8	-28.0%	5.1
Cc1ccc(S(=O)(=O)N2CCCCC2)cc1NC(=O)C1CC(=O)N(c2ccc3c(c2)OCCO3)C1 (stereo not given)	.	-0.3%	1.7%	?	15.6	.	3.3
CC(=O)NC(=S)Nc1ccc(S(=O)(=O)Nc2nc(C)cc(C)n2)cc1	1.8	-4.2%[15.4 µM]	.	-4.4%	3.9	-9.2%	1.4
CCN(CC)C(=O)COc1ccc(-c2nnc(Nc3ccc(OC)c(C(=O)NC)c3)c3ccccc23)cc1	1.2	-9.2%[15.4 µM]	0.0%	-22.0%	16.8	-9.5%	10.0&-4.9
Oc1ccc(/C=N/N2CCCCC2)cc1O	?	-22.2%	-0.4%	3.9%	5.6	50.1µM*	4.2
Cc1ccc(C(=O)CSc2ccc(-c3ccccc3)nn2)cc1	2.8	-36.7%	-6.0%	-13.4%	-7.1	-12.0%	-10.7
COc1ccc(Cn2c(C(F)(F)F)ccc(C(N)=O)c2=O)cc1	1.5	8.8%[15.4 µM]	-1.7%	9.5%	13.9	13.8%	-0.1
CC1(C)Cc2c(cnn2-c2cccc(F)c2)C(NC(=O)c2cc[n+]([O-])cc2)C1 (stereo not given)	5.5	-7.4%	1.6%	6.9%	-12.4	13.4%	-2.7
COc1ccc(-n2c(=S)[nH]c3sc4c(c3c2=O)CCN(C)C4)cc1	6.4	.	.	.	-4.5	?	.
COc1cc2nc(C3CCC3)n(NC(=O)C(OC(C)=O)c3ccccc3)c(=O)c2cc1OC (stereo not given)	1.6	-11.5%	-0.5%	-4.5%	-24.6	12.1%	14.7

Four records drawn at random from the list so far, as already listed:
smiles	Menin-MLL FL inh	gsp agonist	ClpP mod	gsp antag	TRPV1 potentiator	Sfp PPTase inh	TRPML1 blocker
O=C(CS(=O)(=O)c1ccccc1)Nc1nc2ccccc2s1	1.8	29.8%	1.1%	-8.4%	-12.9	17.9%	5.4
CC(C)(C)OC(=O)C[C@H]1C/C=C\C[C@H](CC(=O)N(CCO)Cc2ccccc2)C(=O)N[C@@H](Cc2ccccc2)COC1=O	.	-5.8%	0.7%	-18.4%	.	.	-5.1
O=C(Nc1cccc(C(F)(F)F)c1)c1cc(Br)cc2c1OCC2	4.4	16.5%[15.4 µM]	.	19.2%	-8.4	-2.1%	6.0
CCOc1ccc(N2C(=O)CN=C2Nc2ccccc2F)cc1	-0.4	0.0%	4.4%	11.3%	-6.2	9.1%	4.3

Following part:
smiles	Menin-MLL FL inh	gsp agonist	ClpP mod	gsp antag	TRPV1 potentiator	Sfp PPTase inh	TRPML1 blocker
COc1ccc(C2CCCCCN2C(=O)C2CCN(S(=O)(=O)c3cccc(C(C)=O)c3)CC2)cc1 (stereo not given)	.	3.0%	2.2%	-1.4%	.	.	16.3
CN1CCC(=O)N([C@H](CO)c2ccccc2)CC1	-2.5	9.6%	-0.8%	10.0%	-22.8	14.5%	25.5
Cc1cc(C)cc(Oc2nc(-c3ccccc3)cc(C)c2S(C)(=O)=O)c1	8.6	-29.2%	?	-12.6%[15.4 µM]	6.8	16.3%	-11.9
CCOc1cccc2sc(N(CCN(C)C)C(=O)c3ccc4ccccc4c3)nc12	-5.1	7.6%	-5.3%	15.6%	-3.7	-7.1%	20.9
COc1ccc(/C=N/n2cnc3c([nH]c4ccccc43)c2=O)cc1CO	4.2	1.3%	3.7%	7.8%	6.7	8.4%	.
O=C(c1cc(-c2ccncc2)nc2ccccc12)N1CCN(Cc2ccccc2)CC1	.	-3.0%[15.4 µM]	-2.3%	-8.9%	.	.	-0.8
COc1ccc(OC(=O)c2ccc(Cl)cc2)c(C(C)=O)c1	-3.7	4.3%	.	-9.7%	0.0	-14.7%	35.3
COc1ccc(CN2CCNC(=O)C2CC(=O)NC2CCCC2)c(OC)c1 (stereo not given)	.	-21.2%	-8.6%	3.7%	1.0	5.3%	-5.5
O=C(CSc1nnc(-c2ccccc2Cl)o1)N1CCOCC1	-1.8	3.3%	.	5.4%	-14.4	9.8%	9.2
O=C(/C=C/c1ccccc1)NNc1ccc(Cl)cc1	-0.2	11.6%	.	8.5%	-7.9	-15.4%	-9.3
CCCCC(=O)Nc1cccc(C(=O)Nc2ccccc2C(=O)O)c1	-0.1	10.4%[15.4 µM]	.	-38.0%	1.3	13.4%	28.6
CCn1c(SCC(=O)NC2CCCC2)nc2c1c(=O)n(C)c(=O)n2C	0.2	25.7%[15.4 µM]	.	6.8%	-1.1	13.3%	8.3
O=C(Nc1ccc(F)cc1)c1ccc(S(=O)(=O)N2CCOCC2)o1	-1.8	-4.5%[15.4 µM]	.	3.0%	-26.8	11.4%	16.7
CC1(C)Cc2c(sc3c2C(=O)N(c2ccccc2)C2=NCCN23)CS1	10.1	?	-27.6%	-3.9%	3.6	89.1µM*	0.7
Cn1nc(C(=O)NC2=NCCS2)ccc1=O	1.7	-0.2%	-0.2%	8.6%	-1.9	4.4%	13.9
CC(C)CN(C(=O)CCNC(=O)c1ccccc1Cl)C1CCS(=O)(=O)C1 (stereo not given)	.	14.2%	-2.5%	5.3%	-10.5	.	24.3
COc1ccc(C)cc1NCc1ccc(OC)c(C)c1OC	-7.3	-0.2%	1.5%	-11.1%	14.4	-29.4%	0.8
COc1ccc(CNC(=O)/C=C/c2ccco2)cc1OC	17.2	-16.4%[15.4 µM]	.	-6.2%	-45.6	44.7µM*	-1.4
CN(Cc1ccccc1)CC(O)COc1ccc(CNCc2cccnc2)cc1 (stereo not given)	1.2	?	-2.7%	5.6%	-4.8	16.5%	3.1
COC(CN(C)C(=O)C1CCC(CNS(=O)(=O)c2ccc(C)cc2)CC1)OC (stereo not given)	-0.8	21.9%	2.1%	1.8%	-8.5	6.6%	4.4
COc1ccc(Br)cc1CN(C)C(=O)CNC(=O)c1ccc2ccccc2c1	0.5	8.9%[15.4 µM]	.	31.6µM*	-1.9	-2.7%	1.7
Cc1ccc(NC(=O)CN(C)CC(=O)Nc2ccccc2C(=O)Nc2ccccc2)cc1	3.2	-17.2%[15.4 µM]	.	6.8%	-3.5	-2.7%	2.6
CC1(C)CC(=O)c2cnc(NC(=O)c3ccco3)nc2C1	3.2	-53.0%[inhibitor]	0.5%	0.6%	-4.4	-0.1%	0.5

Source: PubChem BioAssay (National Center for Advancing Translational Sciences (NCATS))
